Source: PubChem BioAssay (National Center for Advancing Translational Sciences (NCATS))
SARS PLpro yeast – qHTS of Yeast-based Assay for SARS-CoV PLP; S. cerevisiae expressing SARS-CoV PLpro, growth rescue; control for the full effect not named in the record; Potency, µM (doses to about 32.9 µM), for the others: top-dose activity, positive = growth rescue; actives 0.19% (n = 330,000); AID 485353, 2010; active means well fitted rising curve with a large enough effect; inconclusive means small, poorly fitted or top-dose-only effect; inactive means no such curve, though single readings can be large or run the other way; also: 0% is about no effect; nearly all actives have a fitted effect of over 55% in size; growth read by luminescence after 48 h
Cruzain noTriton – qHTS Assay for Promiscuous and Specific Inhibitors of Cruzain (without detergent); Cruzipain (Trypanosoma cruzi), P25779; purified cruzain, Z-FR-AMC fluorescence, no detergent; Potency, µM, for inactives: max response, negative = inhibition, most hits filed as inhibitors; actives 2.3% (n = 200,000);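 also: plate controls were enzyme without inhibitor for no effect and buffer without enzyme for full effect; nearly all actives have a fitted effect of over 40% in size; top concentration of the series not given in the record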
Target sequence (P25779 123-467 limits assumed): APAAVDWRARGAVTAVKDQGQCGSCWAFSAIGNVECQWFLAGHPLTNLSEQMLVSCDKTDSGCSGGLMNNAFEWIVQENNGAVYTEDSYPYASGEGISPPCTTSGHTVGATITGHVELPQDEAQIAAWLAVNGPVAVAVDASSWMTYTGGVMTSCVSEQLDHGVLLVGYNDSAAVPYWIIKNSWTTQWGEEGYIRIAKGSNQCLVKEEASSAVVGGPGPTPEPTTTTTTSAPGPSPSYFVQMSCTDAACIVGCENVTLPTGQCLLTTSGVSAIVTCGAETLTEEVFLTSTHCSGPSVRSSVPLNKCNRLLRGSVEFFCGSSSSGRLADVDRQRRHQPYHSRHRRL
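Purified cruzain at 1.5 nM, pre-incubated 15 min with compound at room temperature in 100 mM sodium acetate pH 5.5, 5 mM DTT, 0.00005% Triton X-100. Reaction started with 2 uM Z-FR-AMC; AMC fluorescence increase over 60 s gives rate.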
MARV entry inh – qHTS for inhibitors of binding or entry into cells for Marburg Virus. AID 540276, 2011. Marburg virus pseudotyped entry inhibition, cell reporter; control for the full effect not named in the record; about a third of the inactives were read at about 46 µM. Potency, µM (doses to about 37.8 µM), without a hit: at the highest dose activity change, negative = inhibition, actives largely listed as inhibitors. actives 1.8% (n = 300,000); active = well fitted inhibition curve with a large enough effect; inconclusive = small, poorly fitted or top-dose-only effect, or effect the other way; inactive = flat fitted curve, though single readings scatter; tested in HEK293 cells; about a fifth of its hits are not listed in these tables; also: % is scaled to controls: 0 for no effect and ±100 for the full control effect; luciferase read-out
LASV entry inh – qHTS for Inhibitors of binding or entry into cells for Lassa Virus; Lassa virus pseudotype entry inhibition, cell reporter; control for the full effect not named in the record; Potency, µM (top dose mostly 37.9 µM), inactives show top-dose activity change, negative = inhibition, hits mostly inhibitors; actives 1.2% (n = 300,000); active means well fitted inhibition curve with a large enough effect; inconclusive means small, poorly fitted or top-dose-only effect, or effect the other way; inactive means flat fitted curve, though single readings scatter; tested in HEK293 cells; also: % is scaled to controls: 0 for no effect and ±100 for the full control effect; nearly all actives have a fitted effect of over 50% in size; luciferase read-out
NS1 inh – qHTS Assay for Inhibitors of Influenza NS1 Protein Function; S. cerevisiae slowed by influenza A NS1, growth recovery by OD600; Potency, µM (highest dose often 46.1 µM), for inactives: at the top dose activity, positive = more growth; actives 0.4% (n = 270,000); AID 2326, 2010; active means well fitted rising curve with a large enough effect; inconclusive means small, poorly fitted or top-dose-only effect; inactive means no such curve, though single readings can be large or run the other way; also: nearly all actives have a fitted effect of over 50% in size
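A cell-based growth assay was used: compounds that relieve NS1-induced slow growth of budding yeast raise OD600. Assay medium was yeast nitrogen base with ammonium sulphate and -URA supplement, pH 6.0, with 2% galactose.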
RE007 growth inh – qHTS Assay for Inhibitors of the HIV-1 protein Vpr; S. pombe RE007 Vpr strain, BacTiter-Glo ATP luminescence, 24 h; control for the full effect not named in the record; Potency, µM (titrated, usually from 92.2 µM), inactives show at the highest dose activity change, negative = less growth; actives 0.21% (n = 360,000); AID 651644, 2012; active = well fitted falling curve with a large enough effect; inconclusive = small, poorly fitted or top-dose-only effect; inactive = no such curve, though single readings can be large or run the other way;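 also: % is scaled to controls: 0 for no effect and ±100 for the full control effect; nearly all actives have a fitted effect of over 50% in size; the assay follows cell death caused by Vpr and the record does not say whether a fall means rescue or toxicity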
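Fission yeast RE007 carrying one integrated HIV-1 vpr copy, seeded at OD 0.01 in PMG+AL medium with 23 nL pinned compound. Grown 24 h at 30 degrees; viability read by BacTiter-Glo luminescence after 5 min.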
Cruzain inh Det – qHTS Assay for Promiscuous and Specific Inhibitors of Cruzain (with detergent); actives 0.43% (n = 200,000); AID 1478, 2009; Potency, µM, for inactives: max response, negative = inhibition, usual class: inhibitors; purified cruzain, Z-FR-AMC fluorescence, 0.01% Triton; Cruzipain (Trypanosoma cruzi), P25779;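 also: plate controls were neutral wells for no effect and buffer without enzyme for full effect; nearly all actives have a fitted effect of over 40% in size; top concentration of the series not given in the record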
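Read-out: AMC fluorescence (360 nm excitation, 450 nm emission), four reads over 2 min, first-to-third difference used. Conditions: cruzain 1.5 nM, Z-FR-AMC 2 uM, pH 5.5 acetate, 5 mM DTT, 0.01% Triton X-100.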
2A StopGo – High Throughput Screening for Foot and Mouth Disease Virus Antivirals; human cells with a luciferase reporter of 2A StopGo recoding; control for the full effect not named in the record; Potency, µM (doses to about 57.9 µM), without a hit: top-dose signal change, negative = less light; actives 1.2% (n = 410,000); AID 1159524, 2015; active = well fitted falling curve with a large enough effect; inconclusive = small, poorly fitted or top-dose-only effect; inactive = no such curve, though single readings can be large or run the other way; tested in HEK293T cells; also: % is scaled to controls: 0 for no effect and ±100 for the full control effect; nearly all actives have a fitted effect of over 45% in size; luciferase light after 4 h
The depositor's hits bear a star; ? = inconclusive; . = not tested or not shown; & = joins results of further samples; [ ] = remark or other dose. Unless noted, calls follow the shape of the dose curve; as a rule, active = well fitted curve in the direction sought with a large enough effect; inconclusive = small, poorly fitted or top-dose-only effect, or another doubt; inactive = no such curve, though single readings can be large; an effect the other way counts as inactive or inconclusive. Potency is read from the fitted curve at half-maximal effect.

SMILES | SARS PLpro yeast | Cruzain noTriton | MARV entry inh | LASV entry inh | NS1 inh | RE007 growth inh | Cruzain inh Det | 2A StopGo
Cc1c(C(=O)O)c2cc(O)ccc2n1-c1ccccc1 | -4% | -11% | ? | 6% | 12% | 9% | -2.6% | -11%
Oc1c(Cl)cccc1Cc1cc(Cl)cc(Cl)c1O | . | . | ? | ? | . | 35µM* | . | ?
COCCCn1c(=N)c(C(=O)NCc2ccc3c(c2)OCO3)cc2c(=O)n3ccccc3nc21 | 5% | -10% | ? | -2% | 2% | 3% | -3.7% | -20%
Cc1cccc(NC(=O)Cc2c(F)cccc2Cl)n1 | -4% | . | ? | -9%[46.1 µM] | -10% | 0% | . | -1%
CN1CCN(C(=S)c2ccc(-c3cccc(Cl)c3Cl)o2)CC1 | -24% | -17% | ? | -13% | -9% | -16% | -29% | -1%
Cc1ccccc1CSc1cn(CC(=O)N2CCCCC2)c2ccccc12 | . | -9% | . | ? | . | . | -5.8% | 12%
COc1cccc(C2=CC(c3ccc(OC)c(OC)c3OC)n3ncnc3N2)c1 (stereo unspecified) | . | 4% | . | 6%[46.1 µM] | . | . | -2.3% | -21%
COc1ccc(S(=O)(=O)NCC(c2cccs2)S(=O)(=O)c2ccccc2)cc1OC (stereo unspecified) | . | -4% | . | -9%[46.1 µM] | . | . | -1.5% | 48%[activator]
Cc1ccc(S(=O)(=O)N2CCC(=O)N(CCOCc3cccc(Cl)c3)CC2)cc1 | 11% | ? | -5% | -16% | -19% | 14% | -3.1% | -7%
CCN(CC)c1nc2c(s1)C(=O)CC(C)(C)C2 | 12% | -5% | 13% | -1% | 5% | 5% | -5.1% | 23%
O=C(NC1CCCCC1)c1cc(S(=O)(=O)N2CCN(c3ccccc3)CC2)ccc1Cl | 0% | . | ? | 2%[46.1 µM] | . | -13% | . | -25%
COc1c2c(cc3c1C(CC(O)Cc1ccccc1)N(C)CC3)OCO2 (stereo unspecified) | 0% | . | ? | -29% | 2% | 10% | . | -21%
CN(C1CCCCC1)S(=O)(=O)c1ccc2c(c1)c(=O)c(C(=O)N1CCN(c3ccccc3)CC1)cn2C | . | 6% | ? | 8%[46.1 µM] | . | . | -2.2% | -6%
Cc1ccc(-n2ncc3c(Nc4c(C)n(C)n(-c5ccccc5)c4=O)ncnc32)c(C)c1 | 6% | 4% | 5%&-2% | 8% | -2% | 2% | 3.8% | .
CC(=O)N/N=C(\C)CC(=O)Nc1cccc2c1CCCC2 | 1% | . | -14%[46.1 µM] | 8% | 2% | -8% | . | -8%
CC1=NN(C(=O)c2ccc(Cn3nc(C)cc3C)o2)C(O)(C(F)(F)F)C1 (stereo unspecified) | 2% | -5% | 9% | 1% | 1% | 8% | 0.9% | -9%
CCNc1nc(NCC)nc(SCCOC(=O)COc2ccc(Cl)cc2Cl)n1 | -36% | 0% | -8% | 3% | -11% | 5% | -3.8% | .
CCN(CC)S(=O)(=O)c1ccc(C(=O)Nc2nc3ccc(Cl)cc3s2)cc1 | . | -6% | . | 3%[46.1 µM] | . | . | 2.6% | ?
COc1cccc(Nc2nc(-c3cccs3)nc3ccccc23)c1 | -75% | ? | ? | ? | -2% | -16% | -11% | -17%
CCOC(=O)N1CCN(C(c2ccc(Cl)cc2)c2sc3nc(C)nn3c2O)CC1 (stereo unspecified) | 2% | . | . | . | -4% | 0% | . | 8%
Cc1cccc(C)c1NC(=O)CN1CCN(C(=O)C2CCC2)CC1 | 3% | . | 1%[46.1 µM] | 3% | . | 19% | . | -8%
CC1c2ccccc2N(NC(=O)Cc2ccccc2)C1C (stereo unspecified) | 1% | . | 3% | 13% | -6% | -3% | . | -16%
COc1ccc(NC(=O)N(C2CCCCC2)C(C)c2ccco2)c(OC)c1 (stereo unspecified) | 6% | -7% | -21% | -15% | -78% | -6% | -4.1% | .
Cc1ccccc1NC(=O)CN1C(=O)S/C(=C\c2ccc(-c3cccc(C(=O)O)c3C)o2)C1=O | -2% | . | -10%[46.1 µM] | 5% | 2% | 15% | . | 0%
CCc1ccc(N(C(=O)c2csnn2)C(C(=O)NC2CCCCC2)c2ccncc2)cc1 (stereo unspecified) | -1% | . | 7%[46.1 µM] | -16%[46.1 µM] | -2% | 18% | . | 13%
CCN(CC)C(=O)Cn1cnc2sc(C(=O)NCCCN3CCOCC3)c(C)c2c1=O | 8% | . | 3%[46.1 µM] | 12%[46.1 µM] | 0% | -6% | . | 1%
CC1(C)CC(=O)C(C=NCCN2CCN(C(=S)Nc3ccccc3)CC2)=C(O)C1 | ? | -2% | 9% | -6% | -22% | 10% | 3.5% | -24%
Cc1cc(C)c(C#N)c(N2CCOCC2)n1 | -3% | 2% | -7% | 6% | 2% | -18% | -1.6% | -12%
CCOC(=O)c1ccc(S(=O)(=O)N2CCC(C(=O)OCC)CC2)cc1 | -2% | 18% | -14% | -15% | -47% | 4% | -2.4% | -1%
COc1ccccc1-c1ccc(=O)n(CC(=O)NCc2ccco2)n1 | -5% | . | -3%[46.1 µM] | 22%[46.1 µM] | . | 11% | . | -3%
O=S(=O)(c1ccc(S(=O)(=O)N2CCN(Cc3ccccc3)CC2)cc1)N1CCOCC1 | 10% | -9% | 5% | . | 7% | . | 2.1% | .
Cn1c(=O)n(C)c2cc(NS(=O)(=O)c3ccc(C(C)(C)C)cc3)c(NCc3ccccc3)cc21 | . | -28% | 3%[46.1 µM] | 1%[46.1 µM] | . | . | -9.1% | -10%
COc1ccc(NC(=O)c2ccc3nc(C(C)C)oc3c2)cc1OC | . | -4% | . | 16%[46.1 µM] | . | . | -1.0% | -16%
O=S(=O)(c1cccs1)N1CCCc2cccc(O)c21 | 1% | -4% | ? | 14% | -31% | -27% | 2.4% | 47%[activator]
CCN(CC)C(=O)c1cc(-c2ccccc2OC)on1 | -8% | -5% | ? | 0% | -1% | -9% | 1.3% | 54%[activator]
CCn1nc(C)c(C(=O)Nc2cc(Oc3cc(C)cc(C)c3)cc([N+](=O)[O-])c2)c1C | -13% | ? | ? | ? | ? | 48% | -3.3% | ?
CCn1cc([N+](=O)[O-])c(C(=O)N2CCOCC2)n1 | 2% | 13% | ? | ? | 13% | -3% | -1.3% | -25%
CCOc1ccc(-c2nnc(SCC(=O)NC(C)CC)nc2-c2ccc(OCC)c(OC)c2)cc1OC (stereo unspecified) | . | -3% | . | -3%[46.1 µM] | . | . | -2.4% | -3%
Cc1nc2cc(Cl)ccc2c(=O)n1Cc1ccncc1 | -2% | . | . | . | 2% | 4% | . | -20%
C=CCn1c(SCC(=O)Nc2cc3oc4ccccc4c3cc2OC)nnc1-c1cnccn1 | -2% | ? | ? | 0% | -106% | 6% | 0.1% | 7%
Nc1ccc(S(=O)(=O)c2ccc(NC(=O)c3cccnc3)cc2)cc1 | . | -4% | 4%[46.1 µM] | 0%[46.1 µM] | -8% | 1% | -0.2% | -2%
COc1ccc(N2C(=O)C3CC=C(Cl)CC3C2=O)cc1 (stereo unspecified) | -5% | -3% | 20% | 12% | -2% | 2% | 2.3% | 20%
COc1ccc(Cl)cc1NC(=O)CN1CCN(S(=O)(=O)N2CCC(C)CC2)CC1 | 0% | . | ? | ? | -27% | 1% | . | -24%
CCOC(=O)c1cc(NCc2cccs2)ccc1N1CCOCC1 | 0% | . | 22%[46.1 µM] | -14%[46.1 µM] | -2% | 10% | . | -12%
COc1ccc(C2C3C=CCC(c4cccc(-c5ccc(C)cc5)c4)C3C(=O)N2Cc2ccccc2)cc1Cl (stereo unspecified) | -3% | . | . | . | -12% | -5% | . | -43%
Cc1cccc(N2C(=O)N3[C@H](c4ccc(Br)cc4)[C@@H]4C(=O)N(C(C)(C)C)C(=O)[C@@H]4[C@]3(C)C2=O)c1 | 4% | . | . | . | 4% | -2% | . | -17%
Cn1c(=O)[nH]c(=O)c2c1nc(SCCCO)n2CCCc1ccccc1 | -7% | . | . | . | -1% | 27% | . | -15%
CCn1c2ccccc2c2cc(NC(=O)c3ccc(Br)o3)ccc21 | -20% | 107% | -5% | -25% | 16% | -26% | 13µM* | -21%
CSc1ncc(Br)c(N2CC2)n1 | . | . | ? | 16%[46.1 µM] | . | 2% | . | -4%
Cn1c(=O)c2c(nc(Br)n2Cc2ccc3ccccc3c2)n(C)c1=O | 10% | -9% | -19% | -18% | -5% | -6% | -9.6% | 14µM*
O=C(CN1CCN(C(=O)C2CC2)CC1)Nc1cc(C(F)(F)F)cc(C(F)(F)F)c1 | 5% | . | -18% | -9% | . | 1% | . | ?
NC(=O)[C@@H]1CCCCNc2c(F)cc([N+](=O)[O-])cc2C(=O)N[C@@H](CC(=O)O)C(=O)NCC(=O)N1 | -12% | -5% | 2% | -7% | 0% | 1% | -6.0% | -9%
CCN(CC)C(=O)C1=C(C)NC(=S)NC1c1cn(-c2ccccc2)nc1-c1ccc(Cl)cc1 (stereo unspecified) | 4% | ? | ? | -6% | ? | -1% | -0.8% | -10%
COc1cc(NC(=O)c2c(F)cccc2F)c(Cl)cc1Cl | 2% | . | -20%[46.1 µM] | -23% | . | 3% | . | -14%
C=C(C)c1cccc(C(C)(C)NC(=O)Nc2ccc(C(N)=O)cc2)c1 | 0% | . | ? | 0%[46.1 µM] | -2% | 16% | . | ?
Cc1ccnc2c1NC(=O)c1cccnc1N2C1CC1 | 0%&2% | -10%&-6% | . | . | 3% | -20%[18.4 µM] | 2.0%&1.8% | -22%
CCOC(=O)c1ccc(Nc2cc(C)nc(-c3ccccc3)n2)cc1 | -2% | . | . | . | 1% | 9% | . | -22%
